GLA inh pH 4.5: blocks human alpha-galactosidase A at pH 4.5; P06280; purified enzyme, 4-MU-alpha-Gal fluorescence, pH 4.5; activity change, negative = inhibition, % at 105 µM; 230,000 tested, under 10 active; AID 1467; inconclusive = small, poorly fitted or top-dose-only inhibition, or a rising curve; inactive = flat fitted curve, though single readings scatter; no compound was filed as active;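 note: 0% = full activity with enzyme and -100% = basal without enzyme; dose as in the result columns while the protocol names 77 µM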
Target sequence (P06280 whole entry, looked up): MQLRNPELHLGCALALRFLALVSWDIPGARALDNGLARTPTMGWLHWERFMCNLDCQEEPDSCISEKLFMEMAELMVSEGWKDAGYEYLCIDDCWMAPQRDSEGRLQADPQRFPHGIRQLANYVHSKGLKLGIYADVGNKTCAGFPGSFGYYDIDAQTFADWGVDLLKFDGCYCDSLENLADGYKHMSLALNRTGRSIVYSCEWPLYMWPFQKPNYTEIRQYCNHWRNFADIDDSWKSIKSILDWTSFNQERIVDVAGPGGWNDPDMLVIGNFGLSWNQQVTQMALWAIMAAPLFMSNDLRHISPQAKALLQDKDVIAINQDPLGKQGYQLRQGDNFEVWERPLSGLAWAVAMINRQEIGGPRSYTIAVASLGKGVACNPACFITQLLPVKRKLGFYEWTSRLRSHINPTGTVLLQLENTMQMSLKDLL
miR-21 reporter: miR-21 reporter, rising signal; HeLa miR-21 FLuc reporter, luciferase, 48 h; Potency, µM (series often up to 38.3 µM), without a hit: top-dose reporter change, positive = more light; 340,000 tested, under 10 active; active = well fitted rising curve with a large enough effect; inconclusive = small, poorly fitted or top-dose-only effect; inactive = no such curve, though single readings can be large or run the other way;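 note: % of control where 0% means no effect; miR-21 action dims this reporter so a rising signal means less miR-21 action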
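Luminescence from a firefly luciferase reporter carrying a miR-21 binding site downstream, stably expressed under a CMV promoter in HeLa cells that make miR-21 endogenously, reports miRNA modulation after 48 h compound exposure up to approximately 40uM final.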
Rango complex inh: Rango-importin beta binding inhibition; Rango CFP/YFP FRET sensor + importin beta, 45 min; Potency, µM (highest dose often 92.2 µM), inactives show at the highest dose inhibition of complex formation; 340,000 tested, 0.031% active; Q14974; active = rising FRET ratio curve, often small or poorly fitted; inconclusive = mostly compound fluorescence or quenching in the first reads; inactive = flat curves in all reads;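 note: potency is the fitted concentration of half-maximal effect; 0% = DMSO wells and 100% = buffer wells lacking importin beta; nearly all actives have a fitted effect of over 15% in size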
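FRET biosensor Rango (snurportin 1 IBB between N-terminal EYFP and C-terminal Cerulean), 50 nM in PBS/1 mM DTT/0.02% Tween-20/0.1% BSA, preincubated 5 min RT with compound; 0.125 microM importin beta added, 45 min RT, CFP/YFP FRET ratio read.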
Rango dissoc inh: inhibitors of RanGTP-induced Rango-importin beta complex dissociation; O95149+P62826; Biochemical FRET Rango-importin beta, RanGTP-induced dissociation; AID 540253; Potency, µM (series often up to 46.1 µM), without a hit: at the highest dose activity change, negative = inhibition; 340,000 tested, 0.071% active; active means falling FRET ratio curve, often poorly fitted, with flat reads before Ran was added; inconclusive means other falling curves, or compound fluorescence or quenching; inactive means flat or rising ratio curve;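 note: potency is the fitted concentration of half-maximal effect; % of control where 0% means no effect; nearly all actives have a fitted effect of over 45% in size; -100% = wells without RanGTP and RCC1; the record marks most hits as doubtful in a second field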
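Recombinant Rango FRET biosensor (EYFP–snurportin 1 IBB–cerulean CFP10) at 0.1 uM premixed with 0.25 uM importin beta in PBS, 1 mM DTT, 0.02% Tween-20, 0.1% BSA. Compound added 5 min; RanGTP-RCC1 (0.6 uM Ran, 2 mM GTP, 0.2 uM RCC1) then triggers release, read at 45 min.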
* = called active by the depositor; u = inconclusive; x = no result given; & = joins results of further samples; [ ] = dose if it differs, or a comment. These rows are one share of the data; count on the stated rates, not on these rows.

structure	GLA inh pH 4.5	miR-21 reporter	Rango complex inh	Rango dissoc inh
CCOC(=O)c1cc2occc2n1CC(=O)NCCOC	-8	1%	-2.2%	2%
CCOC(=O)C1=C(Nc2ccc(OC)cc2)OCC1=O	-2	-1%	1.9%	8%
CCSc1nnc(-c2ccccc2N=Cc2c(C)[nH]n(-c3ccccc3)c2=O)c(=O)[nH]1	1	-20%	-3.7%	-27%
O=C(COc1ccc2ccc(=O)oc2c1)NC1CCS(=O)(=O)C1 (stereo not given)	x	x	3.0%	6%
CC(C)Nc1ncnc2c1cnn2-c1ccc(Cl)cc1	3	0%	u	-22%
COc1ccc(OC)c(CN2CCN(c3ccccc3OC)CC2)c1	1	-6%	-2.8%	20%
CCOc1cc(CNCCc2ccc(S(N)(=O)=O)cc2)cc(Cl)c1OCc1ccccc1	-2	u	-0.4%	-5%
COc1ccc(S(=O)(=O)N(CC(=O)N2CCOCC2)c2ccc(F)cc2)cc1OC	x	-1%	-1.1%	-21%
Cc1ccc(S(=O)(=O)N2CCCc3cc(NC(=O)c4c(F)cccc4F)ccc32)cc1	x	0%&0%	-1.2%	-17%
N#Cc1ccc(COC(=O)C2CC(=O)N(CCc3ccccc3)C2)cc1 (stereo not given)	x	x	-1.8%	0%
CCN(CC)C(=O)COc1c(-c2ccco2)oc2ccccc2c1=O	x	0%	4.9%	-2%
CC(=O)Nc1ccc(OCC(O)Cn2c3ccccc3c3ccccc32)c(C)c1 (stereo not given)	2	24%	-0.3%	-4%
COc1ccc(S(=O)(=O)N2CC=C(C(=O)Nc3ccc(NC(C)=O)cc3)CC2)cc1	-3	0%	-2.8%	-10%
Nc1ccc2oc3ccc(N)cc3c(=O)c2c1	2	-78%	u	u
Cc1ccc(Cl)cc1NC(=O)CNC(=O)N1CC(=O)Nc2ccccc21	x	-1%	0.8%	8%
CN1CCN(c2ccccc2NC(=O)COc2ccc(Br)cc2)CC1	1	4%	-0.3%	15%
O=C(NC(=S)Nc1cccc(CO)c1)c1ccc(-c2ccccc2)cc1	1	-13%	-3.3%	-7%
COc1ccccc1CN(C)C(=O)CN1CCN(S(=O)(=O)c2ccc3c(c2)OCCCO3)CC1	x	x	-4.6%	3%
N/C(CSc1ccc(Cl)cc1)=N\S(=O)(=O)c1ccc(Cl)cc1	-5	-2%	-0.5%	-3%
CCCOc1ccc(CNCCCOCC)cc1OC	-8[21.1 µM]	0%	3.7%	19%
Cc1cccc2cc(CN(Cc3ccc(F)cc3)C(=O)N(C)C)c3nnnn3c12	1	-5%	6.5%	12%
COc1cccc(CC(=O)Nc2nc3c(s2)C(=O)CC(C)(C)C3)c1	0	1%	-4.2%	-4%
O=C(CCN1C(=O)C2CC=CCC2C1=O)Nc1cccc(Cl)c1 (stereo not given)	x	0%	-3.3%	0%
C=CCN1C(=O)/C(=c2\sc3nc(=O)c(Cc4ccccc4Cl)nn3c2=O)c2ccccc21	-7	1%	0.8%	-27%
COc1ccc(-c2cc(C(=O)Nc3cc(Cl)ccc3OC)no2)cc1	x	0%	8.2%	16%
Cc1c2cnccc2c(C)c2c1oc1ccccc12	x	x	-5.6%	u
Cc1ccc(C)c(OCC(O)CN2CCc3ccccc3C2)c1C (stereo not given)	x	12%	1.3%	-6%
CCOC(=O)N1CCN(C(=O)C2CCC(=O)N(Cc3ccc(Cl)cc3)C2)CC1 (stereo not given)	x	1%	0.4%	12%
COC(=O)c1cc(S(=O)(=O)NCCCc2ccco2)c[nH]1	x	-3%	0.8%	20%
CCOC(=O)N1CCN(C(=O)c2ccccc2CCc2ccccc2)CC1	-12	-7%	-0.9%	3%
O=C1CC(c2ccccc2)=Nc2ccccc2N1	9	-11%	-0.1%	1%
C/C(=C\C(=O)Nc1cc(C)on1)c1ccccc1	0	-37%	0.3%	7%
COc1cc(C)c(S(=O)(=O)N2CCN=C2c2ccccc2)cc1C	8	-6%	-1.0%	1%
Cc1ccc(C)c(NC(NC(=O)c2ccccn2)C(Cl)(Cl)Cl)c1 (stereo not given)	5	-4%	-4.7%	0%
CSc1ccccc1NC(=O)CN(C)CC(=O)Nc1cccc(Br)c1	3	18%	-3.3%	0%
CC(C)c1cc(C(=O)NC2CCCCC2)no1	-4	-55%	-2.4%	23%

One compound at a time, as listed above. Order of screens: GLA inh pH 4.5	miR-21 reporter	Rango complex inh	Rango dissoc inh
Record of `N#Cc1ccc(COC(=O)C2CC(=O)N(CCc3ccccc3)C2)cc1` (stereo not given) = x	x	-1.8%	0%
Record of `Cc1cccc2cc(CN(Cc3ccc(F)cc3)C(=O)N(C)C)c3nnnn3c12` = 1	-5%	6.5%	12%
Record of `N/C(CSc1ccc(Cl)cc1)=N\S(=O)(=O)c1ccc(Cl)cc1` = -5	-2%	-0.5%	-3%
Record of `CCCOc1ccc(CNCCCOCC)cc1OC` = -8[21.1 µM]	0%	3.7%	19%

A few values from the entries so far.
COc1ccc(-c2cc(C(=O)Nc3cc(Cl)ccc3OC)no2)cc1 in miR-21 reporter is listed with 0%
CCOC(=O)N1CCN(C(=O)c2ccccc2CCc2ccccc2)CC1 in Rango dissoc inh is listed with 3%
COc1cc(C)c(S(=O)(=O)N2CCN=C2c2ccccc2)cc1C in miR-21 reporter is listed with -6%

(more compounds)
structure	GLA inh pH 4.5	miR-21 reporter	Rango complex inh	Rango dissoc inh
NC(=S)Nc1ccc(C(F)(F)F)cc1Cl	-14	12%	7.4%	-5%
O=C(CCNC(=O)c1ccc([N+](=O)[O-])cc1)NNC(=O)c1ccncc1	x	-3%	2.8%	u
CCCc1nn(C)c(C(=O)Nc2ccc(Cl)cc2)c1Cl	-1	-36%	-0.7%	1%
CCN1CCN(Cc2nc3c(c(=O)n(C)c(=O)n3C)n2CCCc2ccccc2)CC1	-1	4%	x	x
COc1ccc(-c2cc(C(F)(F)F)n3nc(C(=O)O)nc3n2)cc1	-9	-5%	-3.4%	3%
COc1ccc(CNC(=O)c2ccc(-c3ccccc3)cc2)cc1OC	9	-1%	0.4%	-12%
Cc1cccc(C)c1NC(=O)CN(C)C(=O)CCC(=O)N1CCOCC1	x	x	-0.1%	-10%
NS(=O)(=O)c1ccc(NC(=S)NC(=O)C2CCCC2)cc1	x	-7%	-0.7%	-6%
CC(C)(C)c1cc(C(=S)N2CCN(CCO)CC2)cc(C(C)(C)C)c1O	-8	-7%	0.3%	-2%
O=C(CCCN=C1NS(=O)(=O)c2ccccc21)OCC(=O)c1ccc(F)c(F)c1	x	x	-0.9%	-10%
O=C(CCn1c(=O)c2ccccc2n(Cc2ccccc2)c1=O)NC1CCN(Cc2ccccc2)CC1	2	9%	-2.4%	0%
O=C(CCCC(=O)Nc1ccc(Br)cc1)N/N=C/c1ccccc1	x	-5%	1.7%	5%
O=C(NCc1ccco1)/C(=C\c1cccs1)NC(=O)c1ccco1	5	-2%	5.2%	1%
COc1ccc2c(C(=O)CN3CCC(C)CC3)c[nH]c2c1	1	-25%	-1.4%	11%
CCOc1ccc(NC(=NCc2ccc3c(c2)OCO3)SC2CC(=O)N(c3ccccc3)C2=O)cc1 (stereo not given)	-12	-2%	-0.9%	1%
Cc1cc(Cl)cc(Cl)c1OCCCCN(C)C	7	-6%	3.0%	0%
CC1(C)Cc2c(C#N)c(N)sc(=S)c2CS1	-5	-10%	u	u
CC12CC(c3ccccc3O1)N(C(=O)c1ccco1)C(=S)N2c1ccc(F)cc1 (stereo not given)	-4	28%	-6.0%	-14%
CCOC(=O)c1ccccc1NC(=O)[C@@H]1CCCN1C(=O)OC(C)(C)C	x	-3%	3.4%	-7%
Nc1ncnc2nc(SCC(=O)N3CCN(c4ccccc4)CC3)[nH]c12	1	-9%	-0.1%	25%
O=C(Nc1ccccc1)c1ccc(C(=O)Nc2ccccc2)nc1	7	-33%	-0.6%	-7%
Cc1ccc(-c2cc(C(=O)N/N=C/C=C/c3ccco3)c3ccccc3n2)cc1C	-2	0%	-4.0%	-8%
COc1ccc(-c2nn(-c3ccccc3)cc2/C=C/C(=O)OCC(=O)Nc2ccc(C#N)cc2)cc1	3	-9%	-3.8%	-1%
COc1ccc(S(=O)(=O)NCCOc2ccccc2)cc1C	-5	2%	1.1%	0%

Only miR-21 reporter and Rango dissoc inh, for 2 of the compounds above:
compound	miR-21 reporter	Rango dissoc inh
Cc1cccc2cc(CN(Cc3ccc(F)cc3)C(=O)N(C)C)c3nnnn3c12	-5%	12%
COc1cccc(CC(=O)Nc2nc3c(s2)C(=O)CC(C)(C)C3)c1	1%	-4%

Carrying on.
structure	GLA inh pH 4.5	miR-21 reporter	Rango complex inh	Rango dissoc inh
CCCCOc1ccc(-c2cn3ccccc3n2)cc1[N+](=O)[O-]	4	-20%	-3.0%	-25%
CN(CC(=O)Nc1ccccc1Cl)C(=O)COC(=O)c1ccc(-c2ccc(O)cc2)cc1	x	x	1.0%	18%
COc1ccc(C2(c3ccc(OC)cc3)NC(=O)N(CC(=O)NC3(C#N)CCCC3)C2=O)cc1	x	x	-0.9%	-26%
COc1cc(C(=O)NC2CCCC(C)C2C)ccc1OCC(=O)N1CCOCC1 (stereo not given)	x	x	-1.7%	-5%
COc1ccc(C)cc1NC(=O)Nc1ccccc1	5	0%	-0.8%	6%
Cc1ccc(NC(=O)C(C)Sc2nnc(C)n2C)cc1 (stereo not given)	x	-3%	-0.6%	10%
COc1cc(C)c(Cl)cc1S(=O)(=O)N1CCSC1	x	-12%	-1.2%	-8%
CN(CCO)c1nc(NCc2ccccc2)c2cnn(C)c2n1	x	-6%	3.6%	-11%
Cc1ccccc1C(=O)c1cccn1CC(=O)NCc1ccccc1	-5	-32%&-44%	-1.5%	-11%
COc1ccc(Cc2nnc(SCc3nc4ccccc4c(=O)[nH]3)n2C)cc1	2	-3%	-4.0%	1%
COc1ccc(CCCC(=O)NCCc2ccccc2)c(C)c1	x	-3%	-1.0%	-7%
CCOc1ccc(/C=N/NC(=O)Cc2csc(Nc3cccc(C(F)(F)F)c3)n2)cc1	-17	8%	1.5%	3%
Cc1ccc(S(=O)(=O)N2CCN(CC(=O)N(CC(C)C)c3c(N)n(CC(C)C)c(=O)[nH]c3=O)CC2)c(C)c1	4	-3%	u	13%
CN(C)C(=O)c1cc(C(=O)c2ccc(C(F)(F)F)cc2)c[nH]1	x	-33%	-0.5%	14%
O=C1CSC(c2ccccc2)N1CCc1ccccc1 (stereo not given)	x	-8%	-0.1%	-6%
Cc1cccc(Nc2nnc(SCC(=O)Nc3ccccc3[N+](=O)[O-])s2)c1	-12	-20%	3.3%	1%

Screening data (PubChem BioAssay)
